High-throughput results as filed in PubChem.
HPGD block: inhibitors of human 15-hydroxyprostaglandin dehydrogenase (HPGD). purified HPGD, NADH fluorescence kinetic, PGE2 substrate. Potency, µM, for the others: at the top dose activity change, negative = inhibition, most hits filed as inhibitors. 150,000 tested, 4.3% active. AID 894; active = well fitted inhibition curve with a large enough effect (not every such curve was filed as active); inconclusive = small, poorly fitted or top-dose-only effect, or another doubt; inactive = no such curve, though single readings can be large or run the other way;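 also: top concentration of the series not given in the record; plate controls included wells without enzyme; inactives centre near -10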
Target sequence (P15428 whole entry, looked up): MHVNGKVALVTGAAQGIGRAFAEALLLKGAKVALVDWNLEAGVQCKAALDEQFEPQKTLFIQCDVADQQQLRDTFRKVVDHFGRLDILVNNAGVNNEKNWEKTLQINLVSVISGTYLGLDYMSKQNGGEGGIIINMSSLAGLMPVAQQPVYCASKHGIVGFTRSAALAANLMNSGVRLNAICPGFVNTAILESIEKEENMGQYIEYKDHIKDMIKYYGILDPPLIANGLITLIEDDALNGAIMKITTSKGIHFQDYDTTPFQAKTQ
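20 nM HPGD preincubated 15 min at room temperature with compound in 50 mM Tris-HCl pH 8, 0.01% Tween 20. Started with 1 mM NAD+ and 30 uM prostaglandin E2; NADH fluorescence (360/450 nm) read 5 times over 30-s intervals, last minus first.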
* marks the source's active call; other numbers are inactive results; ? = inconclusive; & = joins results of further samples. % is scaled to controls: 0 for no effect and ±100 for the full control effect; potency is read from the fitted curve at half-maximal effect.

SMILES	HPGD block
Cc1sc(/N=C/c2c(O)ccc3ccccc23)c(C#N)c1C	-12%
CCCCc1nc(SCC(=O)Nc2cc(C)on2)n[nH]1	-8%
COc1ccc(OC)c(NC(=O)c2ccccc2NS(=O)(=O)c2cccc3cccnc23)c1	?
CCN1C(=O)N[C@@H](c2cccc(F)c2)C(C(=O)OC)=C1C	-11%
CC(C)C1NC(C(=O)O)Cc2c1[nH]c1ccccc21 (stereo unspecified)	?
O=C(NCCCN1CCOCC1)C1CC(=O)N(C2CCCCC2)C1 (stereo unspecified)	-9%
CC1CCCC(C)N1CCNC(=O)C1CCN(S(=O)(=O)N2CCCCC2)CC1 (stereo unspecified)	-4%
Cc1ncc([N+](=O)[O-])n1CCOC(=O)c1cc(Cl)cc(Cl)c1N	?
CC1CCN(C(=O)CSc2nc(N)c3c4c(sc3n2)CN(C)CC4)CC1	?
CCN(CC)C(=S)SCC(=O)NC12CC3CC(CC(C3)C1)C2	14µM*
Cc1nc2cnc(N(C)C)nc2n(Cc2cccs2)c1=O	-23%
Clc1cccc(COn2c(-c3ccc(Cl)cc3Cl)nc3ncccc32)c1	6%
CCOCCCNC(=O)C(NC(=O)c1ccc(NC(C)=O)cc1)c1ccccc1 (stereo unspecified)	1%
O=C(Nc1cccnc1)c1coc(=O)c2ccccc12	2%
O=C(CN(c1cccc(Cl)c1)S(=O)(=O)c1ccc(Cl)cc1)N1CCc2ccccc2C1	-17%
O=C(NCCc1c[nH]c2ccccc12)/C(=C\c1cccnc1)NC(=O)c1ccco1	-14%
CCOC(=O)c1cnc2c(C)c(C)ccc2c1Nc1ccc(S(=O)(=O)Nc2ncccn2)cc1	-25%
CN(Cc1ccco1)c1nc(-c2cccc(C#N)c2)nc2ccccc12	?
O=C(COc1ccccc1-c1ccccc1)N/N=C/c1cccc2ccccc12	?
O=S(=O)(c1ccccc1)c1nc(-c2ccccc2)oc1N1CCCCC1	?
O=C(N/N=C/c1ccc[nH]1)c1cccnc1	-12%
C[C@@H](C(=O)NCc1ccccn1)[C@@H]1C[C@@]1(C)[C@@H](NC(=O)OCc1ccccc1)c1ccccc1	-8%&-10%
CCn1c(SCC(=O)Nc2ccc3c(c2)oc2ccccc23)nnc1-c1ccc(N)cc1	?
COc1ccc2c(c1)cc1n2CCN=C1N	?
Cc1cc(C)c2nc(N3CCC(C(=O)N4CCCC4)CC3)sc2c1	13µM*
COc1cc(/C(C)=N/Nc2ccc(C(=O)O)cc2)cc(OC)c1OC	-9%
CC1=C(C(=O)NCCCOC(C)C)C2(CCC(C)CC2)OC1=O (stereo unspecified)	3%
CCN(CC)CCCn1c(=S)[nH]c2ccccc2c1=O	-7%
Clc1cccc(OCCn2cncn2)c1Cl	-7%
COc1ccc(C(=O)N2CCC3(CCCN(Cc4ccccc4OC)C3)CC2)cc1	-3%
Cc1cc(C(F)(F)F)nn1CC(=O)NNC(=S)Nc1ccc(Cl)cc1	-2%
COc1ccc(-c2nc(NC(=O)c3ccc(OCC(=O)N4CCOCC4)c(OC)c3)sc2C)cc1	-21%
CCCCCn1c(C(Cc2ccccc2)NC(=O)COC)nc2ccccc21 (stereo unspecified)	-2%
Cn1cccc1Cc1nnc(SCC(=O)N2CCc3ccccc32)n1-c1ccc(F)cc1	-1%
CCSc1nc2ccccc2n1C(=O)/C=C\c1ccc(OC)c(OC)c1	-10%
CC(C)c1nc2oc3c(NCC4CCCO4)ncnc3c2c2c1COC(C)(C)C2 (stereo unspecified)	?
Cc1ccc(NC(=O)c2c(C)nn(-c3ccccc3)c2Cl)c(C)c1	14µM*
C[n+]1c2cc(N)ccc2cc2ccc(N)cc21	-7%
c1ccc(-c2nc3ccccc3s2)nc1	-23%
O=C(O)/C(=C\c1ccco1)NC(=O)c1cccc2ccccc12	-10%
COc1cc(CSc2nnnn2-c2ccc(C)cc2)cc(OC)c1OC	-21%
Cc1ccc(C(=O)Oc2ccccc2N2C(=O)C3CCCCC3C2=O)cc1 (stereo unspecified)	-1%
O=C(NCCc1c[nH]c2ccccc12)[C@H]1C[C@@H]1[C@H](NP(=O)(c1ccccc1)c1ccccc1)c1ccccc1	-6%
COc1ccc(OC)c(C(=O)CC2OC(=O)c3ccccc32)c1 (stereo unspecified)	-16%
COC(=O)c1c(NC(=O)CN2C(=O)c3ccccc3C2=O)sc(Cc2ccc3c(c2)OCO3)c1C	-12%
Cc1nnsc1C(=O)N/N=C/c1ccccc1	-29%
CCN=C(NCC)SC1CC(=O)N(c2ccccc2)C1=O (stereo unspecified)	-10%
O=C(N/N=C/c1ccc(O)cc1)/C(=C/c1ccccc1)CCO	-10%
COCC(=O)Nc1nc2ccc(S(C)(=O)=O)cc2s1	-10%
CCOc1cc(/C=N/NC(=O)Cc2ccc(C(F)(F)F)cc2[N+](=O)[O-])ccc1O	-3%

Additional entries follow:
SMILES	HPGD block
CO/N=C(\C(=O)N[C@@H]1C(=O)N2C(C(=O)O)=C(CSc3nc(=O)c(O)nn3C)CSC12)c1csc(N)n1 (stereo partly specified)	-20%
O=C(c1ccc(=O)n(Cc2ccccc2)n1)N1CCN(C/C=C/c2ccccc2)CC1	-3%
Cc1cccc(Oc2ncnc3oc(-c4ccccc4)cc23)c1C	?
CCOc1ccc2c(c1)OC(c1ccccc1)(C(F)(F)F)NC2=O (stereo unspecified)	-7%
O=C(OCc1cc(=O)n2cc(Br)ccc2n1)c1ccc(Cl)c(S(=O)(=O)NCc2ccccc2)c1	-29%
CCCCc1ccc(-n2nnnc2SCC(=O)Nc2cc(OC)c([N+](=O)[O-])cc2C)cc1	-18%
CCOC(=O)N1CCN(C(=O)C2CC(c3ccccc3OC)=NO2)CC1 (stereo unspecified)	-11%
CC1CCCN(S(=O)(=O)c2ccc(NC(=O)c3cccc(-n4cnnn4)c3)cc2)C1 (stereo unspecified)	28µM*
OCCN1CN=C(Nc2nc3ccccc3o2)NC1	-7%
Oc1ccccc1-c1cc(C(F)(F)C(F)F)[nH]n1	-22%
COc1ccc(N2C(=NC(C)=O)SC3CS(=O)(=O)CC32)cc1OC (stereo unspecified)	1%
Fc1ccccc1CSc1nncn1NC/C=C/c1ccccc1	-15%
N#C/C(=C(/O)CN1C(=O)c2ccccc2C1=O)c1nc2ccccc2[nH]1	-15%
CCn1c(SCC(=O)NCCOc2ccccc2)nc2ccccc2c1=O	0%
CCC1(CC)C(=O)C(C)(C)C(=O)OC1c1cccs1 (stereo unspecified)	-5%
COc1ccc(CCNc2ncnc3nc[nH]c23)cc1OC	-5%
CCOC(=O)Cc1csc(/N=C/c2c(O)n(-c3ccc(C)c(C)c3)c(=O)c3ccccc23)n1	?
Cc1ccnc2nc(C(=O)OCC(=O)NCCc3ccccc3)nn12	-13%
O=C1CCCN1CCCN1C(=O)N[C@@H](Cc2ccccc2)C1=O	-11%
Cc1cc(NS(=O)(=O)c2ccc(NC(=O)CSc3nnc(-c4ccco4)n3C)cc2)nc(C)n1	-11%

Random excerpt: four entries already listed.
SMILES	HPGD block
O=C1CCCN1CCCN1C(=O)N[C@@H](Cc2ccccc2)C1=O	-11%
Cn1cccc1Cc1nnc(SCC(=O)N2CCc3ccccc32)n1-c1ccc(F)cc1	-1%
Cc1cc(NS(=O)(=O)c2ccc(NC(=O)CSc3nnc(-c4ccco4)n3C)cc2)nc(C)n1	-11%
CCOC(=O)Cc1csc(/N=C/c2c(O)n(-c3ccc(C)c(C)c3)c(=O)c3ccccc23)n1	?

Further records.
SMILES	HPGD block
Nc1ccc(Cc2nc3cc4ccccc4cc3[nH]2)cc1	-6%
Cc1cc(C)n2cc(CSc3nnnn3-c3ccccc3C)nc2n1	-25%
COc1ccc(N2CCN(C(CNS(=O)(=O)c3cc(F)ccc3F)c3cccnc3)CC2)cc1 (stereo unspecified)	-5%
Cc1ccc(N2C(=O)C(Cl)=C(NCCO)C2=O)c(C)c1	-13%
O=C(c1ccccc1Cl)N1CCN(c2ccccn2)CC1	?
Cn1c(CNc2ccc(Cl)cc2)nnc1SCc1ccccc1	-6%
C[N+](C)(C)/N=C\c1ccc(O)c(O)c1	-4%
Cc1cccc(CNc2cc(-c3ccccc3CN(C)C)ncn2)c1	-15%
Cc1c(Nc2nc(-c3ccc(Cl)cc3)cs2)c(=O)n(-c2ccccc2)n1C	-17%
N#CCc1nc(CSc2nc3ccccc3o2)cs1	-8%
CC(C)CN(CC(C)C)S(=O)(=O)N1CCC(C(=O)NCCN2CCOCC2)CC1	-7%
O=C(CNC(=S)NC(=O)c1cccs1)c1ccccc1	-18%
O=C(CN1CCN(c2ccccc2F)CC1)c1ccc2cc[nH]c2c1	-18%
O=C1N2c3ccccc3CCc3cccc(c32)C1(O)C(F)(F)F (stereo unspecified)	-6%
Cc1ccc(C(C)NC(=O)c2ccco2)cc1 (stereo unspecified)	-19%
C/C=C/Cn1c(N(C)Cc2ccccc2)nc2c1c(=O)[nH]c(=O)n2C	-24%
O=C(c1cccs1)c1coc2ccc(O)cc12	?
CCN1CCc2c(C#N)c(N3CCOCC3)nc(N3CCOCC3)c2C1	-15%
CCOC(=O)CCC(NC(=O)CCCCCCCCC(=O)NC(CCC(=O)OCC)C(=O)OCC)C(=O)OCC (stereo unspecified)	4%
O=C(NCc1nnc2c3ccccc3c(-c3ccccc3)nn12)c1ccccc1Cl	-15%

Entries from the list above that contain two or more sulfur atoms (eight):
SMILES	HPGD block
CC1CCN(C(=O)CSc2nc(N)c3c4c(sc3n2)CN(C)CC4)CC1	?
CCN(CC)C(=S)SCC(=O)NC12CC3CC(CC(C3)C1)C2	14µM*
COCC(=O)Nc1nc2ccc(S(C)(=O)=O)cc2s1	-10%
CO/N=C(\C(=O)N[C@@H]1C(=O)N2C(C(=O)O)=C(CSc3nc(=O)c(O)nn3C)CSC12)c1csc(N)n1 (stereo partly specified)	-20%
COc1ccc(N2C(=NC(C)=O)SC3CS(=O)(=O)CC32)cc1OC (stereo unspecified)	1%
Cc1cc(NS(=O)(=O)c2ccc(NC(=O)CSc3nnc(-c4ccco4)n3C)cc2)nc(C)n1	-11%
N#CCc1nc(CSc2nc3ccccc3o2)cs1	-8%
O=C(CNC(=S)NC(=O)c1cccs1)c1ccccc1	-18%

Going on with the list.
SMILES	HPGD block
CC(C)c1nccn1S(=O)(=O)c1cc(Cl)ccc1Cl	-11%
CCCOc1ccc(NC(N)=O)cc1OCCC	-1%
COc1ccc(O)c(/C=N\NC(=O)CCn2nnc3ccccc32)c1	?
C/C(=N\O)C1/C(=N/O)CC2C1C2(C)C (stereo unspecified)	-6%
O=C(c1cccc(NS(=O)(=O)c2ccc(F)c(F)c2)c1)N1CCN(C(c2ccccc2)c2ccccc2)CC1	-15%
O=C(CN1CCN(c2ccc(F)cc2)CC1)Nc1ccc(-n2cnnn2)cc1	5%
c1ccc(N2CCN(Cc3ccsc3)CC2)nc1	-13%
O=C(CCNC(=O)c1ccccc1Cl)Nc1cc(C(F)(F)F)ccc1Cl	-12%
O=C(O)CN1C(=O)SC(Nc2ccc(Cl)cc2)C1=O (stereo unspecified)	-10%
CCSCCNC(=O)c1cncc(Br)c1	-17%
Cc1ccc(OCC(=O)Nc2cc(S(=O)(=O)N3CCCCC3)ccc2C)c([N+](=O)[O-])n1	0%
Cc1cccc(NCc2ccccc2OCc2ccccc2F)c1	-17%
COCCNC(=O)c1cc(-c2ccc(Cl)c(Cl)c2)on1	-16%
C=CCNc1nc(C)c(C(C)=O)cc1C#N	?
CC(NC(=O)c1ccncc1)C(C)(C)C (stereo unspecified)	-11%
CSc1nncn1/N=C/c1cc(Cl)ccc1F	-24%
Nc1ccc(C(=O)N2CCCC2)cc1	28µM*
COCCNC(=O)c1cc2sc3ccccc3c2s1	?
O=C(Nc1ccc2sccc2c1)c1ccc(Cl)s1	-7%
Cc1c(NC(=O)CN2CCN(c3ccccc3)CC2)c(=O)n(-c2ccccc2)n1C	0%
COc1cccc(/C=N\n2c(C)nnc2C)c1OC	-21%
COc1ccc(-c2noc(CSc3nc4ccccc4c(=O)n3-c3ccccc3)n2)cc1OC	-7%
c1cncc(-c2nn3c(Cn4nnc5ccccc54)nnc3s2)c1	13µM*
CC1(C)Cc2c(c(-c3ccco3)nc3sc4c(NCCN5CCOCC5)ncnc4c23)CO1	?
CCn1cc(S(=O)(=O)CC(=O)NC2CCCCC2)c2ccccc21	-4%
CCC1(c2ccc(Cl)cc2)NC(=S)N(c2ccc(C)cc2)N1 (stereo unspecified)	?
Cc1occc1C(=O)NNC(=O)C(c1ccccc1)c1ccccc1	-11%
O=S(=O)(NCCCO)c1ccc2c(c1)Cc1cc(S(=O)(=O)NCCCO)ccc1-2	-6%
O=C(O)CCC(NS(=O)(=O)c1ccc(N2CCCC2=O)cc1)C(=O)O (stereo unspecified)	-11%
CCc1cc2ccccc2nc1SCC(=O)Nc1cc(OC)c(OC)cc1C(=O)O	-16%
CC(NS(=O)(=O)c1ccc(CCC(=O)N2CCN(C)CC2)cc1)c1ccccc1 (stereo unspecified)	-1%
COc1ccc(S(=O)(=O)Nc2cc(Cl)ccc2OC)cc1	-18%
C/C(=N\NC(=O)c1c(Cl)cnn1C)c1cccc(NC(=O)C(C)C)c1	-2%
CCN(C(=O)COC(=O)c1ccccc1Nc1cccc(C)c1C)C1CCS(=O)(=O)C1 (stereo unspecified)	?
CCCN(CC1CC1)c1nc(N)c2c(N)nc(OC)cc2c1C#N	?
Cc1ccc(NC(=S)N(C)Cc2cn(C)c3ccccc23)cc1	-3%
CC(=O)CCc1oc2ccc(NC(C)=O)cc2c1-c1ccc(C)o1	?
CCOC(=O)C1=C(C)N(c2ccccc2)C(=O)C1CC(=O)O (stereo unspecified)	3%
COc1ccc(/C=N/NC(=O)c2nc(-c3ccccc3)n(-c3ccccc3)n2)cc1	?
COc1ccc(CNC(=O)COC(=O)CC2CC3CCC2C3)cc1OC (stereo unspecified)	-15%
Cc1ccc(Nc2nc3ccccc3c(=O)s2)cc1C	-10%

Some of the compounds tested; rates above refer to the full screens.
